Calb biofilm kill – mixture kills Candida albicans biofilm cells | inhibition, % at 7.6 µM | C. albicans biofilm persisters + clotrimazole, fluorescence viability; primary screen in compound mixtures of four per well | 120,000 tested, 0.02% active | AID 1242;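 active means inhibition above 30.3% in the primary screen of four-compound pools, then above 30% when the compound was retested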;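 further: compounds exposed to preformed 24 h biofilms for 48 h; the number belongs to the whole pool; some results filed as inactive read as strong as hits; inactives centre near 12; 0% = biofilm with clotrimazole alone and 100% = kill control; retested singly at about 60 µM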
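System: C. albicans CAF4-2 wild-type biofilms; Medium: RPMI/MOPS medium, pH 7.0; Reagent: Clotrimazole, 50 µg/mL; Times: biofilm formation 24 h, compound exposure 48 h, 37 °C; Detection: 2-h Alamar Blue fluorescence, 535/590 nm excitation/emission; Evaluation: percent inhibition of biofilm viability.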
* marks the source's active call; other numbers are inactive results. This is a subset (hit frequency here may not be typical).

canonical_smiles | Calb biofilm kill
CC(/C=N/n1c(-c2ccco2)n[nH]c1=S)=C\c1ccccc1 | 5
CCOC(=O)c1sc(N(Cc2ccccc2)C(=O)COC(=O)c2cnccn2)nc1C | 13
Oc1ccc(-c2csc(-c3cccnc3)n2)cc1O | 7
CCC(C)NC(=S)N(CCc1ccccc1)Cc1cc2cc(OC)c(OC)cc2[nH]c1=O (configuration not stated) | 21
O=C1C(Cl)=C(NC2CCCCC2)C(=O)N1c1ccc(Cl)cc1 | 11
O=C(CN1C(=O)COc2ccc(S(=O)(=O)N3CCOCC3)cc21)NCc1ccccn1 | 0
O=C(N/N=C/c1ccccn1)c1cc(-c2ccc3ccccc3c2)n[nH]1 | 18
COc1ccc(NC(=O)CCC(=O)OCc2ccc([N+](=O)[O-])cc2)cc1 | 27
CC(C)(O[C@@H]1O[C@H](CO)[C@@H](O)[C@H](O)[C@H]1O)[C@H]1Cc2cc3ccc(=O)oc3cc2O1 | 9
COc1cc(S(=O)(=O)N(Cc2ccccc2)Cc2ccccn2)ccc1-n1cnnn1 | 15
COc1ccccc1C(=O)C1CCCN(C(=O)c2snnc2C)C1 (configuration not stated) | 15
CC#CC[N+](C)(C)CCCCCCCC | 31
CCN1C(=O)N[C@H](c2ccc(Br)cc2)C(C(C)=O)=C1C | 5
CC(=O)NCc1ccc(C(=O)CCl)s1 | 6
S=C(NCCCN1CCOCC1)Nc1ccc(N2CCOCC2)cc1 | 9
CCOC(=O)C1CCN(C(=O)N(CC)CC)CC1 | 15
COC(=O)C1CC(=O)c2ccsc2C1 (configuration not stated) | 7
Cc1ccc(-c2noc(CN3CCN(Cc4ccccc4)CC3)n2)cc1 | 13
O=C(O)C(F)(F)C(NCc1ccccc1)c1ccccc1 (configuration not stated) | 20
O=C(Cc1cc(=O)[nH][nH]1)N/N=C/c1ccccc1[N+](=O)[O-] | 8
COCCN(C(=O)CSc1nc2ccccc2c(=O)n1CCOC)c1c(N)n(Cc2ccccc2)c(=O)[nH]c1=O | 11
COc1cc(NC(=O)c2c(Cl)cnn2C)c(OC)cc1Cl | 33
COC(=O)c1ccc(C2N=C(c3cccs3)CC(c3ccccc3O)N2)cc1 (configuration not stated) | 14
CC(=O)c1ccc(NC(=O)CSc2nc(C)cc(C)c2C(N)=O)cc1 | 9
O=S(=O)(CC(CN1CCCC1)N1CCCC1)c1ccc2ccccc2c1 (configuration not stated) | 8
O=C(CCc1ccccc1)Nc1ccc(S(=O)(=O)N2CCCC2)cc1 | 18
CCC1(C)CC(C(N)=S)CCO1 (configuration not stated) | 21
Cc1ccc(-n2c(C)cc(C(=O)Cn3nc(C(=O)O)c4ccccc4c3=O)c2C)cc1 | 17
CCNC(=O)CC1C(=O)N(c2ccc(C)cc2)C(=O)N1CCc1sccc1C (configuration not stated) | 9
O=C(c1ccc(Cn2c(=O)[nH]c3ccsc3c2=O)cc1)N1CCN(c2ccccc2)CC1 | 13
C=CCn1c(SCC(=O)Nc2ccc3c(c2)CCC3)nc2ccccc2c1=O | 14
O=[N+]([O-])c1cccc2c3c([nH]c12)CCCC3 | 20
COc1ccc(C(=O)N2CCn3c2nc2ccccc23)cc1 | 15
CCCCOc1ccc(C(=O)Nc2ccc(C)cc2[N+](=O)[O-])cc1 | 5
O=C(CN(CCc1ccccc1)S(=O)(=O)c1ccc(Br)cc1)N/N=C/c1ccc2c(c1)OCO2 | 12
Cc1ccc(NC(=S)Nc2ccc3cn[nH]c3c2)cc1C | 23
O=[N+]([O-])c1ccc(NC(=S)N2CCN(c3ccccc3)CC2)cc1 | 18
CCc1cccc(C)c1NC(=S)N(CCOC)C(C)c1ccco1 (configuration not stated) | 26
CC(=O)Nc1ccc(C(=O)N/N=C/c2cc(Br)cc(Br)c2O)cc1 | 4
C(=C\c1ccccn1)/c1ccccn1 | 23
CCOCCCNC(=O)CCCC1=NS(=O)(=O)c2ccccc2N1 | -3
Cn1c(SCc2cc([N+](=O)[O-])cc3c2OCOC3)nnc1-c1ccccn1 | 9
CC(=O)c1ccc(Oc2cnccn2)cc1 | 0
O=C(CN1CCN(c2ccc(F)cc2)CC1)NC(=O)NCc1ccco1 | 11
CCCN(C(=O)c1cc2c(s1)CCC2)c1c(N)n(Cc2ccccc2)c(=O)[nH]c1=O | 17

Taken from the results shown (6 entries):
canonical_smiles | Calb biofilm kill
C(=C\c1ccccn1)/c1ccccn1 | 23
CCOCCCNC(=O)CCCC1=NS(=O)(=O)c2ccccc2N1 | -3
Cn1c(SCc2cc([N+](=O)[O-])cc3c2OCOC3)nnc1-c1ccccn1 | 9
CC(=O)c1ccc(Oc2cnccn2)cc1 | 0
O=C(CN1CCN(c2ccc(F)cc2)CC1)NC(=O)NCc1ccco1 | 11
CCCN(C(=O)c1cc2c(s1)CCC2)c1c(N)n(Cc2ccccc2)c(=O)[nH]c1=O | 17

Additional entries follow:
canonical_smiles | Calb biofilm kill
CC(CC(=O)Nc1ccccc1)n1ccnc1 (configuration not stated) | 13
Cc1ccccc1Oc1ncnc(N)c1[N+](=O)[O-] | 16
C=CCSC1=N/C(=C/c2ccsc2)C(=O)N1c1ccccc1 | -3
COc1ccc(NC(=O)CO/N=C2\CCCc3nonc32)cc1 | 16
CSc1ccc(CN2CCN(Cc3ccc([N+](=O)[O-])cc3)CC2)cc1 | 11
c1ccc(CNc2ncnc3scc(-c4cccs4)c23)nc1 | 18
Cc1ccc(C(NC(=O)N2CCCCC2)=C(Cl)Cl)cc1F | -8
Cc1cc(OCC(=O)N(C(C)C)C(C)C)cc(C)c1Br | 16
CCC12C(=O)C(CC)(C(c3ccccc3)=C1c1ccccc1)[C@@H]1C(=O)N(c3ccccc3)C(=O)C12 (some centres not stated) | 35
COc1ccccc1/C=C/C=C1\Oc2c(ccc(O)c2CN2CCN(CCO)CC2)C1=O | 10
O=C(C[n+]1ccccc1)Nc1ccccc1C(=O)O | 11
O=C(CNc1cccc2ccccc12)N/N=C/c1ccccn1 | 21
CC1=C2C3OC(=O)C(C)[C@@H]3CC[C@](C)(O)C2C2C3C4C5(C12)[C@H]1OC(=O)[C@@H](C)C1CC[C@]4(C)O[C@]5(C)[C@@H]3O (some centres not stated) | 12
COc1ccc(CNC(=O)Nc2ccccc2)cc1 | 1
CC(CC(=O)N1CCN(c2ccccc2F)CC1)c1ccccc1 (configuration not stated) | -10
CCOc1cccc(OCCn2cnc3ccccc3c2=O)c1 | 15
O=C1NCCNC(=O)c2ccccc2OCCOc2ccccc21 | 14
CC(C)(C)c1cc(NC(=O)CCl)n(-c2ccccc2)n1 | 12
CC(=O)c1ccc(N(C(=O)Cn2nnc3ccccc32)C(C(=O)NCc2ccccc2)c2ccccn2)cc1 (configuration not stated) | 12
COc1ccc(OCCC(=O)NCCN2CCOCC2)cc1 | 9
C(=N\Nc1nc(N2CCCCCC2)nc(N2CCCCCC2)n1)/c1ccccc1 | 8
O=[N+]([O-])c1ccc(C=Nc2ccc(Cl)c([N+](=O)[O-])c2)s1 | -66
Cc1ccc2nc(N3C(=O)CNC3=S)sc2c1 | 22
CC(Cc1cccs1)NC(=S)Nc1ccc(F)cc1 (configuration not stated) | 13
Cc1cc(C)cc(OCc2ccc(C(=O)NN)o2)c1 | 13
COc1ccc(C(=O)NCc2nnc(SCC(=O)N3CCc4ccccc43)n2C2CCCCC2)cc1 | 11
O=C(CNc1ccc2ccccc2c1)NNC1=NCCC1 | 10
CCCCn1c(=O)c(C(=O)N/N=C/c2ccc(F)cc2)c(O)c2ccccc21 | 0
O=[N+]([O-])c1cccc(-c2cn(-c3ccccc3)c(=S)[nH]2)c1 | 17
CCn1nc(C)c(/C=N/NC(=O)Cn2cncn2)c1C | 3

The final 5 entries of the part before lead into the next:
canonical_smiles | Calb biofilm kill
COc1ccc(C(=O)NCc2nnc(SCC(=O)N3CCc4ccccc43)n2C2CCCCC2)cc1 | 11
O=C(CNc1ccc2ccccc2c1)NNC1=NCCC1 | 10
CCCCn1c(=O)c(C(=O)N/N=C/c2ccc(F)cc2)c(O)c2ccccc21 | 0
O=[N+]([O-])c1cccc(-c2cn(-c3ccccc3)c(=S)[nH]2)c1 | 17
CCn1nc(C)c(/C=N/NC(=O)Cn2cncn2)c1C | 3
CCOC(=O)/C(C#N)=C/c1ccc(N2CCN(Cc3ccccc3)CC2)cc1 | -6
O=C(CCc1nnc(Cc2cccc(C(F)(F)F)c2)o1)NC1CC1 | -5
COc1ccc(NS(=O)(=O)c2cccc(C(=O)NNC(=O)NCCCl)c2)cc1 | -1
Cc1c(C(=O)NCCSCc2ccc(F)cc2)cnn1-c1ccc(Cl)cc1 | 31
Cc1nn(Cc2cccc(C(=O)O)c2)c(C)c1[N+](=O)[O-] | 20
O=C(N/N=C1\CCCc2oc(C(=O)O)cc21)c1ccccc1 | 26
CCC(NC(=O)c1ccccc1NC(=O)c1ccccc1)C(=O)NNC(=O)CSc1nc2ccccc2o1 (configuration not stated) | 13
Cc1nn(-c2ncc(C(F)(F)F)cc2Cl)c(=O)n1-c1ccc(F)cc1 | -2
CC(C)OCCCn1c(=NC(=O)c2cccs2)c(C#N)cc2c(=O)n3ccccc3nc21 | 26
O=S(=O)(Nc1nc2ccccc2nc1Cl)c1ccc(Br)cc1 | 20
Cc1cc(=O)oc2cc(OCc3ccc(C(=O)N4CCN(c5ccccc5)CC4)cc3)ccc12 | 16
CC1SC(C)C(=O)N(CC(=O)Nc2ccc3c(c2)OCO3)C1=O (configuration not stated) | 13
COc1ccc(CC(NC(C)=O)C(=O)NC2CCN(c3ncccc3[N+](=O)[O-])CC2)cc1 (configuration not stated) | 9
CCn1c(-c2cc(-c3cc(C)ccc3C)nc3ccccc23)n[nH]c1=S | -5
C[C@H](NC(=O)c1nc[nH]c1C(=O)NCC(=O)OC(C)(C)C)C(=O)OC(C)(C)C | 12
COCCn1c(=NC(=O)c2ccc(S(=O)(=O)N3CCc4ccccc4C3)cc2)sc2cc(S(N)(=O)=O)ccc21 | 20
Cc1cc(NNC(=O)c2ccccc2)nc(NNC(=O)c2ccccc2)n1 | 8
Cc1ccc(S(=O)(=O)N2CCN(c3ccc([N+](=O)[O-])c4cccnc34)CC2)cc1 | 14
CCOc1cc(C(N)=O)cc(Br)c1OC | 13
CN(C)CCN(Cc1cc2cc3c(cc2[nH]c1=O)OCO3)C(=S)NCC1CCCO1 (configuration not stated) | 25
FC(F)(F)c1cccc(NC(=S)NNC(=S)Nc2ccc(Cl)cc2)c1 | 4
NCCCCC(NC(=O)C1CCCN1C(=O)C1CSSCC(N)C(=O)NC(Cc2ccc(O)cc2)C(=O)NC(Cc2ccccc2)C(=O)NC(CCC(N)=O)C(=O)NC(CC(N)=O)C(=O)N1)C(=O)NCC(N)=O (configuration not stated) | 0
CCn1cc(-c2n[nH]c(=S)n2-c2ccc(C)cc2Br)c(=O)c2ccc(C)nc21 | 21
CCN(c1ccccc1)c1nc2nonc2nc1NCCO | 19
O=c1[nH]n(-c2ccc([N+](=O)[O-])cc2)c(=O)c2ccccc12 | 17
CCOC(=O)C1(Cc2ccc(OC)cc2)CCN(C(=O)CC2CCC(=O)N2)CC1 (configuration not stated) | 10
CC(C)(C)NC(=O)c1ccc(C(=O)NC(C)(C)C)cc1 | 17
Cc1ccc(NS(=O)(=O)c2cccc(C(=O)NNC(=O)NC3CCCCC3)c2)c(C)c1 | 9
COc1cccc(C(O)c2cnc(C(C)C)n2C)c1 (configuration not stated) | 28
CCc1ccc(OCC(=O)OCC(=O)c2c(N)n(C)c(=O)n(C)c2=O)cc1 | 4
CN(C)c1ccc(NC(=O)COC(=O)Cn2nnc3ccccc32)cc1 | 16
O=C(CSc1n[nH]c(-c2ccccc2Cl)n1)NCc1cccc(C(=O)O)c1 | 50
CCO[C@@H]1OC(C(=O)N2CCN(Cc3ccc4c(c3)OCO4)CC2)=C[C@H](c2csc3ccccc23)[C@H]1CCCO | 15
CCC(=O)NNC(=O)CCC(=O)Nc1cccc(Cl)c1C | -3
Brc1cccc(OCCN2CCCCC2)c1 | 8
COc1ccc(C(=O)Cn2ccsc2=NC(C)=O)cc1 | 3
CCCCOC(=O)Nc1ccc(N(C)C)cc1 | 14
c1ccc(CCNc2ncnc3c2cnn3-c2ccccc2)cc1 | 4
CCCCNC(=O)CSc1nc(O)cc(=O)n1C1CCCC1 | 0
Cc1ccc(-c2nn(-c3ccccc3)c3[nH]c(=O)c(CNCc4ccccc4)cc23)cc1 | -8
CCOC(=O)C1NN=C(C(=O)c2ccc(C)cc2)C1c1ccc(C)cc1 (configuration not stated) | 9
Cc1ccc(NS(=O)(=O)c2sc3ccc(Cl)cc3c2C)cc1 | 2
O=C(c1cccc(F)c1)N1CCC(c2nc3ccccc3s2)CC1 | 5
CN(C)S(=O)(=O)c1ccc(NC(=O)CN2CCCc3ccccc32)cc1 | -4
Cc1cc(S(N)(=O)=O)c(N)c(S(N)(=O)=O)c1 | 10
N#CCCn1cc(/C=N/O)c(-c2cccc([N+](=O)[O-])c2)n1 | -66
Nc1nnc(SCC(=O)N2CCc3ccccc3C2)s1 | 7
Cc1cccc(OC2CCN(Cc3c(C(=O)N4CCCC4)nc4ccccn34)CC2)c1 | 12
O=C(Nc1nc2c(F)cc(F)cc2s1)C1COc2ccccc2O1 (configuration not stated) | 10
CC(C)n1c(S(=O)(=O)O)nc2ccccc21 | 4
CN(c1ccc(OCC(=O)N2CCOCC2)cc1)S(=O)(=O)c1ccc(F)cc1 | 14
S=C(Nc1ccc(Br)cc1Cl)NN1CCOCC1 | -1
CCOc1cccc(/C=N/Nc2nc(N3CCCC3)nc(N3CCCC3)n2)c1O | 16

Screening data from PubChem.
